# HEK293 NFkB inh: lowers PMA/ionomycin-induced NF-kB signal in HEK293 cells; inhibition, % at 3 µM; hit rate 0.21% among 62,000; HEK-293 NF-kB luciferase reporter, luminescence;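 active = inhibition above the mean of all tested compounds plus 3 SD, cut at about 40% in these data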;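 also: 0% = stimulated DMSO wells and 100% = 10 µM reference inhibitor 5653914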
#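 Signal: luciferase luminescence; Material: HEK-293 cells with stable firefly luciferase reporter driven by four HIV NF-kB elements; Probe or stimulus: PMA with ionomycin; Replication: tested once; Times: 1 h compound pretreatment, then 16 h stimulation at 37 °C, 5% CO2; Benchmarks: DMSO and 10 µM reference inhibitor; Evaluation: per-plate % inhibition versus controls.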
# TNAP act DEA: activates human TNAP at intermediate phosphate acceptor concentration. P05186. purified TNAP, CDP-star luminescence, 100 mM DEA, 30 min; active compounds read high; scale: 0 levamisole-inhibited, 1 vehicle-only enzyme. activation factor at 20 µM. 64,000 tested, under 10 active. AID 813;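 active = activation factor of at least 2 at 20 µM, relative to controls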
# Cdc25B inh: inhibitors of human Cdc25B phosphatase; inhibition, %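 (compounds tested at 10 µM final in the well)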; recombinant Cdc25B, OMFP fluorescence Ex485/Em525; P30305; hit rate 0.1% among 65,000; in the data active = inhibition above about 50%
# MKP-1 inh: human dual specificity phosphatase 1 inhibition | hit rate 0.15% among 65,000 | recombinant MKP-1, OMFP hydrolysis fluorescence | P28562 | AID 374 | inhibition, %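 (compounds tested at a single concentration somewhere between 10 and 100 µM)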;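 active = inhibition above about 50%, limit read from the data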;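 also: 0% = DMSO max control wells and 100% = wells with enzyme stopped by NaOH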
# Target sequence (P28562 whole entry, looked up): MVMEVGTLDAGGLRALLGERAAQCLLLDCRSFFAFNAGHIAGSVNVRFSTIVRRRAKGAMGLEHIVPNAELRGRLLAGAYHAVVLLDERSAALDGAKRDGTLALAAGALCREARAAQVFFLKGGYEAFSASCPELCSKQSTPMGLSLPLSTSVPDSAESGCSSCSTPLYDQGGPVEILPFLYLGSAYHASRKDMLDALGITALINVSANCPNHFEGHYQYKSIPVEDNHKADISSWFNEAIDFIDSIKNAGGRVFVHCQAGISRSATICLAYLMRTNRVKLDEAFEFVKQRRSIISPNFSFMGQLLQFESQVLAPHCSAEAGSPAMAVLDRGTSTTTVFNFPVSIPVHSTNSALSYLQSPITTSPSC
# MMP13 inh: MMP13 (human) collagenase inhibition | P45452 | MMP-13 fTHP FRET cleavage, Mca fluorescence | inhibition, % at 4 µM | hit rate 0.07% among 65,000 | AID 570;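 active = inhibition above the mean of compound-free control plate wells plus 3 SD, cut at about 14% in these data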;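 also: 0% = DMSO wells and 100% = wells with reference MMP-13 inhibitor after basal subtraction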
# Jurkat tox 60K: cytotoxic compounds reducing Jurkat cell viability | Jurkat E6.1 viability, ATP luminescence, 48 h | inhibition, % at 4 µM | hit rate 1.2% among 56,000 | AID 463;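 active = inhibition above the mean inhibition of all tested compounds plus 3 SD, cut at about 28% in these data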
# The depositor's hits bear a star; . = no result given.
Structure	HEK293 NFkB inh	TNAP act DEA	Cdc25B inh	MKP-1 inh	MMP13 inh	Jurkat tox 60K
CCc1ccc(N2C(=O)C3ON(c4ccccc4)C(c4ccco4)C3C2=O)cc1 (stereo unspecified)	7.4	1	3.5	-4.2	2.9	0.4
CC(=O)NC(Cc1ccc(F)cc1)C(=O)NC1CCN(c2nnnn2-c2ccccc2)CC1 (stereo unspecified)	16.1	0.9	-10.7	6.1	-2.0	1.3
Cc1ccc(S(=O)(=O)N2CCC(C(=O)N[C@H](C(=O)NCC3CCCO3)C(C)C)CC2)cc1 (stereo partly specified)	3.7	0.9	7.9	-16.5	-1.1	5.1
COC(=O)C1=C(C)NC(=O)NC1c1cc(Cl)ccc1OC (stereo unspecified)	-1.0	1	-4.8	14.2	4.9	-4.3
CC1(C)CC(=O)C(C=NCCCN2CCOCC2)=C(O)C1	1.2	1	-2.1	5.5	1.5	7.7
COc1ccc(-n2c(=O)cc(N3CC(C)OC(C)C3)[nH]c2=O)cc1 (stereo unspecified)	3.4	1	-9.1	7.4	-3.5	-7.0
O=c1cc(CN2CCN(c3ccccc3)CC2)c2c(ccc3ccccc32)o1	8.8	0.9	-16.0	-14.1	1.2	0.1
COc1ccc2[nH]c(C)c(C(=O)CN3CC(C)OC(C)C3)c2c1 (stereo unspecified)	.	0.9	-27.7	-8.7	-12.2	.
O=C(NC1CS(=O)(=O)CC1NCc1ccco1)c1ccccc1 (stereo unspecified)	-11.0	0.9	-15.4	-22.8	0.0	2.1
Cn1c(=O)c2c(nc(-n3ccnc3)n2Cc2ccc(Cl)cc2Cl)n(C)c1=O	8.8	0.7	1.5	7.1	-0.2	9.4
CCOC(=O)N1CCN(C(=O)Nc2ccc3nc(C)c(C)nc3c2)CC1	3.6	1	0.8	4.6	-37.9	2.1
COc1ccc(N(CC(=O)N2CCN(c3ccccc3)CC2)S(=O)(=O)c2c(C)noc2C)cc1	15.7	0.9	-4.7	13.9	3.5	10.4
CCCCN(C)S(=O)(=O)c1ccc(C(=O)Nc2nnc(-c3cccs3)o2)cc1	14.0	0.9	-1.5	25.3	-2.2	28.3*
O=S(=O)(NCCN1CCCC1)c1cccc2cccnc12	9.4	0.9	-2.8	1.2	0.2	-6.5
COC(=O)c1ccc(NC(=O)C2CCN(S(C)(=O)=O)CC2)cc1	11.9	0.9	-9.9	14.1	-3.4	6.9
CCOC(=O)N1CCN(C(=O)CN(c2ccc(C)cc2)S(=O)(=O)c2c(C)noc2C)CC1	5.3	0.9	4.6	0.8	2.6	8.5
O=C(c1ccco1)N1CCN(c2ncnc3sc4c(c23)CCC4)CC1	8.2	1	-44.9	-7.4	-3.2	-0.7
COc1cc2c(cc1OC)CN(C(=O)c1cccs1)CC2	13.5	1	-10.1	-14.2	5.3	3.5
Cc1cccc(-n2nnc(C(=O)N3CCc4ccccc4C3)c2N)c1	0.2	0.9	-13.1	14.6	-0.8	-0.4
CCCCNc1nc(N(C)c2ccccc2)nc(-n2ccnc2)n1	0.7	0.9	-0.9	2.6	0.1	-4.7

# No new results follow: twelve of the compounds above.
Structure	HEK293 NFkB inh	TNAP act DEA	Cdc25B inh	MKP-1 inh	MMP13 inh	Jurkat tox 60K
O=C(NC1CS(=O)(=O)CC1NCc1ccco1)c1ccccc1 (stereo unspecified)	-11.0	0.9	-15.4	-22.8	0.0	2.1
Cn1c(=O)c2c(nc(-n3ccnc3)n2Cc2ccc(Cl)cc2Cl)n(C)c1=O	8.8	0.7	1.5	7.1	-0.2	9.4
CCOC(=O)N1CCN(C(=O)Nc2ccc3nc(C)c(C)nc3c2)CC1	3.6	1	0.8	4.6	-37.9	2.1
COc1ccc(N(CC(=O)N2CCN(c3ccccc3)CC2)S(=O)(=O)c2c(C)noc2C)cc1	15.7	0.9	-4.7	13.9	3.5	10.4
CCCCN(C)S(=O)(=O)c1ccc(C(=O)Nc2nnc(-c3cccs3)o2)cc1	14.0	0.9	-1.5	25.3	-2.2	28.3*
O=S(=O)(NCCN1CCCC1)c1cccc2cccnc12	9.4	0.9	-2.8	1.2	0.2	-6.5
COC(=O)c1ccc(NC(=O)C2CCN(S(C)(=O)=O)CC2)cc1	11.9	0.9	-9.9	14.1	-3.4	6.9
CCOC(=O)N1CCN(C(=O)CN(c2ccc(C)cc2)S(=O)(=O)c2c(C)noc2C)CC1	5.3	0.9	4.6	0.8	2.6	8.5
O=C(c1ccco1)N1CCN(c2ncnc3sc4c(c23)CCC4)CC1	8.2	1	-44.9	-7.4	-3.2	-0.7
COc1cc2c(cc1OC)CN(C(=O)c1cccs1)CC2	13.5	1	-10.1	-14.2	5.3	3.5
Cc1cccc(-n2nnc(C(=O)N3CCc4ccccc4C3)c2N)c1	0.2	0.9	-13.1	14.6	-0.8	-0.4
CCCCNc1nc(N(C)c2ccccc2)nc(-n2ccnc2)n1	0.7	0.9	-0.9	2.6	0.1	-4.7

# (list continues)
Structure	HEK293 NFkB inh	TNAP act DEA	Cdc25B inh	MKP-1 inh	MMP13 inh	Jurkat tox 60K
COCCCNC(=O)CC1Oc2ccccc2NC1=O (stereo unspecified)	8.1	0.9	1.7	-6.3	6.5	1.7
c1coc(Cn2nnnc2CN2CCN(C3CCCC3)CC2)c1	3.7	0.9	-2.1	6.8	-5.4	-2.6
Cc1cccc(NS(=O)(=O)c2cccc3cccnc23)n1	4.6	0.9	-6.8	-7.7	1.8	-3.0
CCn1c(COc2ccc(Cl)cc2)nnc1SCC(=O)Nc1ccc2c(c1)OCO2	13.5	0.9	-0.7	-5.8	3.5	-0.5
CC(NC(=O)c1cc(-c2ccccc2)on1)c1ccccc1 (stereo unspecified)	13.8	1	-2.1	-6.7	5.8	-4.8
Cc1cc(C)cc(N(CC(=O)N2CCN(Cc3ccccc3)CC2)S(=O)(=O)c2c(C)noc2C)c1	-4.2	1	-32.5	9.6	7.1	-0.9
CCCCNC(=O)CCC(=O)Nc1ncc(-c2ccc(C)cc2)n1C	-4.8	0.9	6.8	-8.1	-5.3	-3.2
CCOC(=O)c1cnc(C(C)(C)C)[nH]c1=O	1.6	0.9	-11.3	4.1	3.0	-6.5
O=C(CC1(O)C(=O)N(CCc2ccccc2)c2ccccc21)c1ccco1 (stereo unspecified)	11.5	0.8	0.3	8.5	3.4	6.8
COc1ccc(Nc2ncnc3c2cnn3Cc2ccccc2)cc1OC	30.6	1	1.7	-7.5	0.9	5.6
Cc1cc(C(=O)CSc2nnc(-c3ccccc3)n2-c2ccccc2)c(C)n1-c1ncn[nH]1	9.8	0.9	-11.4	36.7	2.6	0.4
CCn1c(CCNC(=O)c2ccc(Cl)cc2)nnc1SCC(=O)NC1CCCC1	7.4	1	-3.3	1.5	6.1	-6.0
Cc1nc(SCCCSc2n[nH]c(C)n2)n[nH]1	7.9	.	6.7	8.0	-0.1	-3.0
CC(C)OC(=O)CCCN1C(=O)c2ccc(N)cc2C1=O	18.0	0.9	14.6	5.4	1.4	11.1
COc1ccc(CNC(=O)C2CC(c3ccc(F)cc3)=NO2)cc1 (stereo unspecified)	13.1	1	-5.3	-3.4	2.2	-2.4
CC1CCCCC1NC(=O)CC1Oc2ccccc2NC1=O (stereo unspecified)	1.9	1	6.2	-5.6	2.5	3.4
CCCCn1nnnc1NCc1cccnc1	-3.0	1	-10.6	1.1	-2.1	-0.2
CCC(C)(C)n1nnnc1C(c1ccc2ncccc2c1)N1CCN2CCCC2C1 (stereo unspecified)	3.5	0.9	-4.9	-22.8	-2.8	-2.4
CCOC(=O)Cn1c(C)cc(=O)c2cccc(C)c21	14.7	0.9	-12.4	6.8	-3.5	-9.0
Cc1noc(C)c1CN1C(=O)NC(Cc2ccccc2)(Cc2ccccc2)C1=O	16.3	1	-0.9	16.0	-4.8	2.8

# For reference, some entries already given:
Structure	HEK293 NFkB inh	TNAP act DEA	Cdc25B inh	MKP-1 inh	MMP13 inh	Jurkat tox 60K
CCn1c(CCNC(=O)c2ccc(Cl)cc2)nnc1SCC(=O)NC1CCCC1	7.4	1	-3.3	1.5	6.1	-6.0
Cc1nc(SCCCSc2n[nH]c(C)n2)n[nH]1	7.9	.	6.7	8.0	-0.1	-3.0

# Bioassay records (PubChem)

# This is a subset (hit frequency here may not be typical).
